# Screening data: PubChem BioAssay, National Center for Advancing Translational Sciences (NCATS)
# NPR1 antag = blocks ANP-stimulated signaling of human Npr1 receptor. P16066. HEK293 hNpr1 GloSensor cGMP, ANP-stimulated luminescence. Potency, µM (doses to about 46.3 µM), for the others: at the top dose activity change, negative = inhibition, actives largely listed as inhibitors. 76,000 compounds, 1.6% hits; active = well fitted inhibition curve with a large enough effect; inconclusive = small, poorly fitted or top-dose-only effect; inactive = no such curve, though single readings can be large or run the other way;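 also: nearly all actives have a fitted effect of over 60% in size; nearly all hits also lower the signal before the agonist is added; a reference antagonist and vehicle were the controls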
# Target sequence (P16066 whole entry, looked up): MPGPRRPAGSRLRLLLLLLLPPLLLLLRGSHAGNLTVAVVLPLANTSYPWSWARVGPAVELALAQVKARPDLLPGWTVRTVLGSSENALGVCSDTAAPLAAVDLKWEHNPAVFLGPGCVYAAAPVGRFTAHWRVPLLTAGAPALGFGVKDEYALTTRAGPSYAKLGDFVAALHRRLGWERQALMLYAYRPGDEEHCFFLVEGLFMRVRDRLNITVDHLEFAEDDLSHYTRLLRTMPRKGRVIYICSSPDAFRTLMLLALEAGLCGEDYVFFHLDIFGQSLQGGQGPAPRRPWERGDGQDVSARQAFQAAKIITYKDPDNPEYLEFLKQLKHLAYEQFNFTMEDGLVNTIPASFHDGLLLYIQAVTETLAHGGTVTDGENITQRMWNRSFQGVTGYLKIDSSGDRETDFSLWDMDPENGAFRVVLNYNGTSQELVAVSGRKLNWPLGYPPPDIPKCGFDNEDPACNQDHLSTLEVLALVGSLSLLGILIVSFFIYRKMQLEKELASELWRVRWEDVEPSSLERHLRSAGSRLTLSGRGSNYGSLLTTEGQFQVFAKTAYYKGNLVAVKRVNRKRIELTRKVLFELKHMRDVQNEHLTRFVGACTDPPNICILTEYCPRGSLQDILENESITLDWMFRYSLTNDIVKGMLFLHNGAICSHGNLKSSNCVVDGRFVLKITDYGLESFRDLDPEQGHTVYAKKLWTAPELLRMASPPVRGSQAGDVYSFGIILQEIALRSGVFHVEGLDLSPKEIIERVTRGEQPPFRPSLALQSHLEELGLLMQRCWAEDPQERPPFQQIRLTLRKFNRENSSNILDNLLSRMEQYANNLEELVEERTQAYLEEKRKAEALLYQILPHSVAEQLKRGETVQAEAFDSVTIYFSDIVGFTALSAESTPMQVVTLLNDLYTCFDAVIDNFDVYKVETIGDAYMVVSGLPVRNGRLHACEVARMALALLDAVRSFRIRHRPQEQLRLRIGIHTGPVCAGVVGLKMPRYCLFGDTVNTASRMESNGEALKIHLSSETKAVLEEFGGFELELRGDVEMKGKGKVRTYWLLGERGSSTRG
#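 HEK293 cells stably expressing human Npr1 and cGMP GloSensor pGS-40F, loaded 2 h with 2% GloSensor reagent, given compound 30 min at room temperature. Luminescence read before and 20 min after 0.1 nM hNppA.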
# The depositor's hits bear a star; ? = inconclusive; [ ] = another dose, or the depositor's remark. % is scaled to controls: 0 for no effect and ±100 for the full control effect; potency is read from the fitted curve at half-maximal effect. This is a subset; rates above refer to the full screens.
# The opening five records (preview)
no.	Molecule	NPR1 antag
1	O=C1N[C@@H]2CCN(S(=O)(=O)c3ccc(Cl)cc3)[C@@H]2C(=O)N1c1ccccc1	4%[70.6 µM]
2	O=C(C1CC1)N1CCC(Cc2noc(-c3ccccc3)n2)C1 (stereo unspecified)	-5%
3	CCOC(=O)C1=C(C)N=C2SC=C(CC(=O)NCC3CCCO3)N2C1c1ccccc1F (stereo unspecified)	-6%
4	O=C(NC1CCCN(c2cc(-c3ccc(F)cc3)[nH]n2)C1)c1ccc(F)cc1Cl (stereo unspecified)	-20%
5	CC(C)c1ccc(NC(=O)N[C@H]2CO[C@H]3[C@@H]2OC[C@H]3O)cc1	4%[70.6 µM]

# The list itself, from the first entry:
no.	Molecule	NPR1 antag
1	O=C1N[C@@H]2CCN(S(=O)(=O)c3ccc(Cl)cc3)[C@@H]2C(=O)N1c1ccccc1	4%[70.6 µM]
2	O=C(C1CC1)N1CCC(Cc2noc(-c3ccccc3)n2)C1 (stereo unspecified)	-5%
3	CCOC(=O)C1=C(C)N=C2SC=C(CC(=O)NCC3CCCO3)N2C1c1ccccc1F (stereo unspecified)	-6%
4	O=C(NC1CCCN(c2cc(-c3ccc(F)cc3)[nH]n2)C1)c1ccc(F)cc1Cl (stereo unspecified)	-20%
5	CC(C)c1ccc(NC(=O)N[C@H]2CO[C@H]3[C@@H]2OC[C@H]3O)cc1	4%[70.6 µM]
6	CCCn1cc(-c2ccncc2)cc1C(=O)N1CCN(c2ccccn2)CC1	?
7	Cn1nccc1CN1CC2(C1)NC(=O)c1ccccc1O2	6%[70.6 µM]
8	Cn1nc2n(c1=O)CCN(C(=O)CC1=CCCCC1)CC2	0%
9	CCNC(=O)[C@@H]1C[C@H](NC(=O)c2ccc[nH]2)CN1C(=O)Cc1cc(C)no1	-1%
10	CCO[C@H]1C[C@@H](O)C12CCN(C(=O)c1cc(C(F)(F)F)[nH]n1)CC2	0%
11	COc1ccc(-c2cc(N3CCC(NC(=O)c4ccc(F)cc4F)CC3)n[nH]2)cc1	-3%
12	CCNC(=O)NC[C@H]1O[C@H](Cc2cc(CN3CCOCC3)on2)CC[C@@H]1O	2%[70.6 µM]
13	CCC1=C(C(=O)OC)C(c2cccc(OC)c2OC)N2C(CC(=O)NCC3CC3)=CSC2=N1 (stereo unspecified)	-6%
14	CC(C)(C)CC(=O)NC[C@H]1OC[C@@H](NCc2ccc(C(=O)O)cc2)[C@@H]1O	4%[70.6 µM]
15	Cc1cnc(C(=O)N2CCC(c3noc(-c4cnccn4)n3)C2)cn1 (stereo unspecified)	-3%
16	Cc1cccc2c1nc1n2[C@@H](CNC2CCN(C)CC2)COC1	-1%[70.6 µM]
17	COc1cccc(CCC(=O)N2CCC(Oc3ccc(-c4noc(C5CC5)n4)cc3)C2)c1 (stereo unspecified)	?
18	O=C1Cc2c(-c3ccccc3OCc3ccccc3)n[nH]c2CN1Cc1ccccn1	-10%[70.6 µM]
19	Cn1nc2n(c1=O)CCC(NS(=O)(=O)c1cccnc1)CC2 (stereo unspecified)	0%
20	COc1ccc(-c2noc([C@@H]3CCCN3C(=O)c3cc(Cl)ccc3OC)n2)cc1	-3%

# Part of the list above, with the structure last:
No. | NPR1 antag | Structure
13 | -6% | CCC1=C(C(=O)OC)C(c2cccc(OC)c2OC)N2C(CC(=O)NCC3CC3)=CSC2=N1 (stereo unspecified)
14 | 4%[70.6 µM] | CC(C)(C)CC(=O)NC[C@H]1OC[C@@H](NCc2ccc(C(=O)O)cc2)[C@@H]1O

# (further entries)
no.	Molecule	NPR1 antag
21	CC(=O)N1CCc2[nH]cnc2C12CCN(C(=O)c1ccc(=O)[nH]c1)CC2	2%
22	COc1ccc(-c2nc(C(C)C)nc3c2CCN(C(=O)C(C)(C)C)CC3)cc1	5%
23	CCN1c2cc(C(=O)Nc3ccc4c(c3)CCC4)ccc2C(=O)N2CCCCC21 (stereo unspecified)	1%
24	O=C1c2c(nc(CNc3ccc(F)cc3)n2Cc2ccccc2)NCCN1Cc1ccccc1	-13%
25	CCC(C(=O)N1CCCn2nc(C(=O)Nc3ccccc3)cc2C1)n1cccn1 (stereo unspecified)	8%
26	Cc1ccc(CCNC(=O)c2cc3c(N4CCSCC4)nc(C)cn3n2)cc1	9%
27	O=C(O)COc1ccc(-c2nccc3c2C(=O)N(Cc2ccccc2)CC(COc2ccc(Cl)cc2)O3)cc1 (stereo unspecified)	0%
28	Cc1noc2c(NC3CCN(C)CC3)cc(-c3ccc(Cl)cc3)nc12	1%[70.6 µM]
29	CCN(CC)C(=O)N1C[C@@H](Oc2cccnc2)C[C@H]1C(=O)N1CCOCC1	5%
30	CC(C)CCN1CC[C@H](c2nnc(-c3cccnc3)o2)C1	0%[70.6 µM]
31	CCOc1ccc(NC(=O)CC2CCCN(c3cnn(CCOC)c(=O)c3)C2)cc1 (stereo unspecified)	-5%
32	O=C(Cc1ccccc1F)Nc1ccc2c(c1)CN(C(=O)[C@H]1CCCN1)CC2	1%
33	COCCNC(=O)c1ccc(-c2ccc(N3CCCCC3)nc2)cc1	-1%
34	COc1ccc(N2Cc3c(ncnc3N3CCC(Cc4ccccc4)CC3)N(C)CC2=O)cc1	-6%
35	CCCc1noc(-c2nnn3c2COC(c2ccc(OC)cc2)C3)n1 (stereo unspecified)	-30%
36	CC(C)n1c(CNC(=O)C2CC(=O)N(C3CCCC3)C2)nc2ccccc21 (stereo unspecified)	9%
37	Cn1c(N2CCN(C(=O)CC[C@H]3NC(=O)c4ccccc4NC3=O)CC2)nc2ccccc21	-8%
38	Cc1ccc2nc(C(=O)NCCc3nc(Cc4ccccc4)no3)cn2c1	-1%
39	Cc1ccc(C2Cn3nnc(C(=O)N4CCN(c5cccc(C)c5)CC4)c3CO2)cc1 (stereo unspecified)	-2%
40	c1ccc(C(CN2CCCC(N3CCN(c4ccccc4)CC3)C2)c2ccccc2)cc1 (stereo unspecified)	1%
41	COc1ccc(C(C(=O)O)N2CCCN(c3ccc(F)cc3)CC2)cc1F (stereo unspecified)	-3%
42	O=C1NCCOCCN(C(=O)c2cccs2)[C@@H]2CCCC[C@H]12	3%
43	CN1CCN(c2ncc(C(=O)O)c(-c3ccccc3)n2)CC1	3%
44	O=C(NC1CCN(c2cc(-c3cccs3)[nH]n2)C1)c1ccccc1 (stereo unspecified)	3%
45	O=C(c1ccncc1F)N1C[C@@H](COCC2CC2)[C@H](c2ccncc2)C1	-8%
46	CN1C[C@@H](NC(=O)c2ccc(-c3ccccc3)cc2)C[C@H]1c1nc(-c2ccc(Cl)cc2)no1	-13%
47	Cc1cccc(C)c1Oc1ncccc1CNC(=O)c1[nH]ncc1Cl	0%
48	N#Cc1ccc(CN2CC[C@@H]3OCC(=O)N(CCc4cccnc4)[C@H]3CC2)cc1	?
49	O=C(NC1CC1)c1nc(-c2ccc(F)cc2)c2ccccn12	-1%[70.6 µM]
50	COc1ccc(N2C(=O)CSC23CCN(C(=O)C2CCCC2)CC3)cc1	2%
51	O=C1NCCCCCCN(Cc2ccncc2)[C@@H]2CN(C3CCOCC3)CC[C@@H]12	4%
52	Cc1cc(C(=O)N2C[C@H]3CN(C4CCOCC4)C[C@@]3(C(=O)O)C2)n[nH]1	4%
53	Cc1ncnc(N2CCN(C(=O)C3CCN(C(=O)C4CC4)CC3)CC2)c1C	-2%
54	CN(C)c1ccc(-c2nc(-c3nnn4c3COC(c3ccccc3Cl)C4)no2)cc1 (stereo unspecified)	-2%
55	CCCNC1(Cc2cc(COc3ccccc3)on2)COC1	2%[70.6 µM]
56	NC(=O)[C@@H]1C[C@H](Oc2cccnc2)CN1C(=O)c1ccc2ccccc2n1	0%
57	Cc1ncsc1CN(C)C1CCc2nn(C)c(=O)n2CC1 (stereo unspecified)	8%
58	O=C(Cn1cccc1-c1nc(-c2ccc3c(c2)OCO3)no1)NCc1ccc(F)cc1F	2%
59	O=C1CC2(CCN(C(=O)c3ccc4c(c3)OCO4)CC2)Oc2cc(Cl)ccc21	-8%
60	CCn1ncc(C(=O)N2CC[C@@H]3CN(S(C)(=O)=O)[C@@H]3C2)c1C	4%
61	COc1cccc(-c2cc(CNC(=O)C3COc4c(cccc4OC)C3)no2)c1 (stereo unspecified)	4%
62	O=C(N[C@H](Cc1ccccn1)C1CC(O)C1)c1cccc2c1NCCC2 (stereo partly specified)	1%
63	Cc1cn2nc(C(=O)NCC3CCCO3)cc2c(=O)[nH]1 (stereo unspecified)	11%
64	c1ccc(Oc2cc3c(cn2)NCCN(CC2CCOCC2)C3)cc1	0%[70.6 µM]
65	CC(=O)Nc1ccc2c(c1)nc1n2[C@@H](CNC(=O)NC(C)C)COC1	-2%[70.6 µM]
66	COc1ccc(CN2CCC(C3CCN(S(C)(=O)=O)CC3)C2)cc1C (stereo unspecified)	9%
67	CC(NC(=O)Cc1ccc(N(Cc2ccc(F)cc2)C(=O)c2ccco2)cc1)c1ccccc1 (stereo unspecified)	-10%
68	COCCNc1ncc(C(=O)O)c(C)n1	-2%
69	Cc1ccc(-c2cc3c(ccn3C(C)C)c(C(=O)NCc3c(C)cc(C)[nH]c3=O)n2)cn1	1%[70.6 µM]
70	O=C([C@@H]1C[C@H](F)CN1S(=O)(=O)c1cccs1)N1CCCCC1	-1%

# (cont.)
no.	Molecule	NPR1 antag
71	O=C1CCC2(CNC(=O)c3cc(F)ccc3F)CCC=C2N1 (stereo unspecified)	1%
72	CCc1ccc(S(=O)(=O)Nc2cccn3nc(CC)nc23)cc1	-15%
73	Cc1cc(C)n(-c2cccc(CN3CCCC(O)(CN(C)C)C3)c2)n1 (stereo unspecified)	4%
74	O=C(CCn1ccn2nc3c(c2c1=O)CCCC3)NCCc1cccs1	3%
75	COCCn1c(=O)n([C@H]2CCCN(C(=O)c3nn(C)c4ccccc34)C2)c2ncccc21	10%
76	O=C1CC(c2ccccc2)N(Cc2ccncc2)CCCN(C(=O)C2CCC2)CCN1 (stereo unspecified)	0%
77	C#CCNC(=O)c1nc2sccn2c1Br	2%[70.6 µM]
78	COCCN(C)C(=O)c1ccc2c(c1)NC(C)(COc1cccnc1)CO2 (stereo unspecified)	?
79	O=C(c1cc(F)ccc1F)N1CCCC(Cc2nncn2CC2CC2)C1 (stereo unspecified)	-7%
80	Cc1noc2c(-c3ccc(N4CCOCC4)cc3)cc(-c3cccnc3)nc12	3%[70.6 µM]
81	O=C(c1ccc2c(c1)OCO2)N1CCN2C(=O)N(Cc3ccccc3)C[C@H]2C1	-3%[70.6 µM]
82	COc1cccc(-c2cnc3[nH]cc(CC(=O)NCc4cccnc4)c3c2)c1	?
83	CC(C)c1noc(-c2cn(C3CCN(C(=O)c4cccc(C#N)c4)C3)nn2)n1 (stereo unspecified)	-17%
84	O=C(Nc1ccccc1F)C1c2ccccc2C(=O)N(Cc2ccccc2)C12CCCC2 (stereo unspecified)	4%
85	CN(CCc1ccccn1)[C@H]1[C@@H]2OC[C@@H](O2)[C@@H](NCc2ccc(OC(F)(F)F)cc2)[C@@H]1O	1%
86	CN1CCC(OC2CCN(C(=O)c3ccc(Br)cc3)CC2)CC1	2%
87	COc1ccc(-c2cc(N3CCC(NC(=O)CCCc4ccccc4)CC3)n[nH]2)cc1	-27%
88	CCc1nncn1C1CCN(S(=O)(=O)c2ccc(Cl)c(C)c2)CC1	-9%
89	O=C(NCc1cc(F)ccc1F)c1csc(N2CCN(c3ccccc3F)CC2)n1	?
90	O=S(=O)(c1ccccc1)N1CCCC(Cc2noc(-c3ccncc3)n2)C1 (stereo unspecified)	8%
91	O=C(c1ccncc1)N1C[C@@H]2OCC(=O)N(Cc3ccncc3)[C@@H]2C1	0%[70.6 µM]
92	CC(C)(C#N)c1ccc(-c2cc(CO)ccn2)cc1	-18%
93	COCC(=O)N1CCC(N2C(=O)C3(CCCCC3)C2c2ccccc2)CC1 (stereo unspecified)	5%
94	CCCNCc1ccc(-c2ccccc2)o1	-1%
95	O=C1NCCN(C(=O)Cn2ncc3ccccc3c2=O)C1Cc1cnc[nH]1 (stereo unspecified)	4%
96	Cc1ccccc1C(=O)N1CCC(c2nn(-c3ccccc3)c(=O)[nH]2)CC1	-8%
97	Cc1noc(CN2CCc3nc(-c4ccc(F)cc4F)[nH]c3C2)n1	0%
98	Cc1ccc(CNC(=O)N2CCC(Oc3ncccc3C(=O)N3CCOCC3)C2)cc1 (stereo unspecified)	3%
99	CC(C)c1nnc2ccc(N3CCN(C(C)C)CC3)nn12	2%
100	CCCNC(=O)N1CC[C@@H](CC(=O)O)[C@@H](CC2=NCCc3ccc(C(C)(C)C)cc32)C1	0%[70.6 µM]
101	Cc1ccc(-n2c(C3CCN(C(=O)c4ccccc4OC(F)(F)F)CC3)n[nH]c2=O)cc1	2%
102	Cc1ccc(CN2CCOCCNC(=O)CC2)s1	0%
103	CCC[C@H]1C[C@H]1C(=O)N1CCC2(CCC(=O)N(CC(N)=O)C2)CC1	1%
104	O=S(=O)(Cc1ccccc1)N1CC(c2nnc(-c3ccncc3)o2)C2(CCOCC2)C1 (stereo unspecified)	-1%
105	COc1cccc(CCC(=O)NC2CCN(C(=O)c3cc4c(=O)[nH]c(C)cn4n3)CC2)c1	-9%
106	O=C(Cc1ccc(Cl)cc1)NCc1nnc2c(-c3nc(C4CC4)no3)cccn12	0%
107	COc1ccc(C(=O)N2CC(c3nnc(-c4ccc(C)cc4)o3)C3(CCOCC3)C2)cc1 (stereo unspecified)	3%
108	COCC(=O)NC1CCCc2c1[nH]c1c(Cl)cccc21 (stereo unspecified)	1%
109	O=C(Cc1cccnc1)N1CCc2c(nc3cc(-c4ccccc4)[nH]n3c2=O)C1	-10%
110	CCNC(=O)c1n[nH]c2c1CN(C(=O)c1ccc(C(F)(F)F)cc1)CC2	-1%
111	Fc1cccc(-n2nc(C3CCOC3)nc2CC2CC2)c1 (stereo unspecified)	5%
112	COc1ccc(C(=O)N2Cc3ccccc3C(O)C2)c(OC)n1 (stereo unspecified)	-4%
113	Cc1ccc(C(=O)N2CCc3nc4cc(-c5ccccc5)[nH]n4c(=O)c3C2)cn1	-1%
